Ba CapD inh – blocks the Bacillus anthracis CapD enzyme; purified CapD enzyme, fluorescence intensity read-out; hits give low values; some hits fall short of the stated cut; z-score (no concentration beside the values); 140,000 tested, 0.23% active; AID 492967;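 active means z-score under -4 in either of two replicates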;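 further: stock transfer was 100 nL into about 40 µL; score is relative to mean and spread of the plate; one replicate is shown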
AID504770 – E. coli YBA685 growth inhibition, screen for V. cholerae RctB inhibitors | E. coli YBA685 rctB-dependent plasmid, OD600 growth, 3 h; hits give low values | z-score (test concentration not listed) | 130,000 tested, 0.27% active;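 active means z-score under -2 on both plates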;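 further: wells of about 30 µL received 100 nL stock; score is relative to mean and SD of the test wells; the first replicate is given; strong numbers were not always called active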
Numbers without * were called inactive; i = inactive; / = no result given; & = joins results of further samples.

Value order – Ba CapD inh, AID504770
> O=C(CON1C(=O)CCC1=O)N1CCN(c2ccccc2)CC1
  /, -0.4
> Clc1ccc(C2Nc3ccccc3O2)cc1Cl (stereo not given)
  0.28, -0.75
> Cc1nc(C)c(NC(=O)N2CCCCC2C)cc1NC(=O)N1CCCCC1C (stereo not given)
  1.3, -0.7
> Cc1c(C(=O)Oc2ccccc2F)oc2ccccc12
  -0.17, 0.9
> CCCSC(=S)c1c(C)[nH]n(-c2ccccc2)c1=O
  -1.7, -0.6
> Cc1cn(S(=O)(=O)c2cn(C)nc2C(F)(F)F)nc1C(F)(F)F
  0.77, 0.5
> CCCCc1ccc(N=CNO)c(C)c1
  0.46, -0.45
> O=C(CN1CCCC1)N1CCc2ccccc21
  -0.29, -0.85
> N/C(=N\OC(=O)Cc1ccccc1)c1ccncc1
  /, -0.45
> COc1ccc(NCc2cn3ccccc3n2)cc1
  0.74, -0.1
> COc1ccc2c(c1)-c1nc(/N=C/c3ccc(C)o3)sc1CC2
  /, -0.4
> COc1ccc([N+](=O)[O-])cc1CSc1nc2ccc(NC(C)=O)cc2s1
  -0.66, /
> COc1ccc(-n2c3c(cc(C#N)c2=O)C(=O)CCC3)cc1
  /, 1.4
> Cc1cccc(Cn2c(N(C)Cc3ccccc3)nc3c2c(=O)[nH]c(=O)n3C)c1
  0.43, 0.2
> CCC(C)NC(=O)CSc1cc(=O)n(C)c2ccc(Cl)cc12 (stereo not given)
  0.63, -0.4
> CCC(=O)c1cc2c(C)cc(=O)oc2c(C)c1C(=O)c1ccccc1
  4.4, 0.55
> Cn1c(Cc2cccs2)nnc1SCC(=O)N1CCCc2ccccc21
  /, 0.7
> COc1cccc(C(=O)NCC(C)C)c1
  /, -0.85
> Cn1cnc2c(=O)oc3ccccc3c21
  0.08, -1.1
> Cc1cccc(OCC(=O)Nc2ccc(CC(=O)O)cc2)c1C
  1, -1.2
> O=C(CCn1nc(-c2ccc(Cl)cc2)c2ccccc2c1=O)N1CCN(Cc2ccccc2)CC1
  0.23, 0.3
> Cc1sc(NC(=O)C(C)C)c(C(=O)O)c1C
  0.015, -0.65
> O=C(Nc1ccccc1)C1=NN(c2ccccc2)C(=O)CC1
  /, 2
> COC(=O)c1scc(S(C)(=O)=O)c1Cl
  0.17, /
> COc1ccc(C(=O)NCc2nnc(SCC(=O)NO)n2-c2cccc(F)c2)cc1
  /, 0.05
> COc1ccc(NC2CS(=O)(=O)CC2NCc2ccccc2)cc1 (stereo not given)
  -0.045, 0.05
> N#C/C(=C\c1ccc(OC(=O)c2ccco2)cc1)S(=O)(=O)c1ccccc1
  -1.5, 1.8
> CC(OS(=O)(=O)c1ccc(Cl)cc1)c1nc2ccccc2[nH]1 (stereo not given)
  0.11, /
> Nc1ccc(Sc2ccc(Cl)cc2)nc1
  1.8, -0.25
> COC(=O)CCc1c(C)nn(-c2ccc(C(=O)NCc3ccc4c(c3)CCO4)cc2)c1C
  0.51, /

Reprinted at random: 4 records from the list.
Value order – Ba CapD inh, AID504770
> O=C(Nc1ccccc1)C1=NN(c2ccccc2)C(=O)CC1
  /, 2
> COc1ccc(C(=O)NCc2nnc(SCC(=O)NO)n2-c2cccc(F)c2)cc1
  /, 0.05
> Cc1cccc(OCC(=O)Nc2ccc(CC(=O)O)cc2)c1C
  1, -1.2
> Nc1ccc(Sc2ccc(Cl)cc2)nc1
  1.8, -0.25

More entries
Value order – Ba CapD inh, AID504770
> COC(=O)C1C(=O)NC(SCC(=O)Nc2ccc(Br)cc2)=C(C#N)C1c1ccccc1OC (stereo not given)
  0.055, /
> O=c1sc(N2CCN(C3CCCCC3)CC2)nc2ccsc12
  0.51, 0.55
> COc1ccc(CN2C(=O)N(CC(=O)NC(C)C)c3ccccc3S2(=O)=O)cc1
  -0.22, -0.05
> CCc1ccc(NC(=O)CSC2=C(C#N)C(c3ccco3)C3=C(CCCC3=O)N2)cc1 (stereo not given)
  1, 0.7
> Cc1ccc(-n2c(C)cc(C=Nc3ccc4[nH]c(=O)[nH]c4c3)c2C)cc1
  /, 1.5
> O=C(O)COc1ccc2ccccc2c1Br
  0.32, -0.8
> O=C1CS/C(=C\C(=O)N2CCOCC2)N1
  0.3, 0.3
> CC(C)(C)NC(=O)C1CCN(S(=O)(=O)c2ccccc2)CC1
  0.33, -0.6
> CCOC(=O)c1ccc(N2C(=O)C(=O)/C(=C(/O)c3ccc(OC)cc3)C2c2ccccc2Cl)cc1 (stereo not given)
  -0.58, /
> N#C/C(N)=C(/C#N)N=Cc1ccccc1
  -3, 0.55
> N#C/C(=C\Nc1cc(C(F)(F)F)cc(C(F)(F)F)c1)S(=O)(=O)c1ccccn1
  -0.68, 1.1
> Cc1cccc(C)c1NC(=O)CSC(=O)c1cccs1
  0.15, -0.1
> CC1(C)CC(=NOC(=O)c2ccccc2)CC(C)(C)N1[O]
  -0.12, 0.05
> CC(C)(C)C(C(Oc1ccc(Cl)cc1)n1cncn1)n1nnnc1C(c1ccccc1)N1CCCCC1 (stereo not given)
  5.7, /
> CCCN(CCC)C(=O)CSc1nc2ncccc2[nH]1
  2.3, 0.4

Rewritten bar-delimited: entries from further up.
SMILES | Ba CapD inh | AID504770
O=C1CS/C(=C\C(=O)N2CCOCC2)N1 | 0.3 | 0.3
CC(C)(C)C(C(Oc1ccc(Cl)cc1)n1cncn1)n1nnnc1C(c1ccccc1)N1CCCCC1 (stereo not given) | 5.7 | /

Next section
Value order – Ba CapD inh, AID504770
> CC(=O)Nc1cccc(/C(C)=N/NS(=O)(=O)c2ccc(C)cc2)c1
  -0.12, -0.75
> CCCN(CCC)c1cc(Cl)nc(N)n1
  0.34, -1.4
> CCOC(=O)c1nc(NCCCN2CCc3ccccc3C2)c2ccccc2n1
  0.25, 1.8
> CC1(C)CC2CC(C)(CN2S(=O)(=O)c2ccc3c(c2)CN(C(=O)C(F)(F)F)CC3)C1 (stereo not given)
  -1, /
> N#CC1(NC(=O)c2cc3ccccc3oc2=O)CCCCC1
  -0.5, 0.2
> CCOc1ccc(-n2c(SC)nnc2-c2c[nH]c3ccccc23)cc1
  -0.56, -1.1
> COc1ccc(CCN(C)C(=O)Cn2c(=O)oc3ccccc32)cc1OC
  /, 0.45
> CC1(C)C2CCC1(C)C(OCC[N+]1(C)CCCC1)C2 (stereo not given)
  0.72, 1.5
> CCOC(=O)/C(C#N)=C\c1cn(C)c2ccccc12
  /, -1.1
> COc1cccc(C2=N/C(=C\c3ccccc3OC)C(=O)N2c2ccc(C)c(F)c2)c1
  0.03, /
> COc1ccccc1C1c2c(-c3ccccc3)n[nH]c2C(=O)N1c1ccc(Cl)cc1 (stereo not given)
  -0.29, /
> COc1cccc(Cn2c(-c3cccnc3Cl)nc3ccccc32)c1
  -0.4, /
> CCOC(=O)C1=NN(c2ccc(Br)cc2)C2(S1)SC(c1ccc(Cl)cc1)(c1ccc(Cl)cc1)c1ccccc12 (stereo not given)
  -0.06, /
> CC1(C)CC2CC(C)(CN2CC(O)COCc2ccc(Cl)cc2)C1 (stereo not given)
  /, -0.65
> Cc1cc(SCc2ccccc2)nc(=O)[nH]1
  -0.12, -0.7

Part of the list above, comma-delimited.
mol,Ba CapD inh,AID504770
CC1(C)CC2CC(C)(CN2S(=O)(=O)c2ccc3c(c2)CN(C(=O)C(F)(F)F)CC3)C1 (stereo not given),-1,/
N#CC1(NC(=O)c2cc3ccccc3oc2=O)CCCCC1,-0.5,0.2

(continued)
Value order – Ba CapD inh, AID504770
> Cn1cnnc1SCc1cccc(CSc2nncn2C)n1
  0.12, -0.7
> Cc1ccc(Nc2nc(C3(C)CC4(CC(COCC(C)C)OC4=O)C(=O)O3)cs2)cc1 (stereo not given)
  0.085, /
> CC(=O)NC1CC2CCC(C1)N2 (stereo not given)
  /, 2.1
> CN(C)CCCN1C(=O)C(=O)/C(=C(/O)c2ccc3c(c2)OCO3)C1c1cccnc1 (stereo not given)
  -0.81, -0.55
> O=C(Cn1nnc(-c2cccs2)n1)NC1CC1
  /, 1.4
> NS(=O)(=O)c1ccc(NC(=O)Cc2cccs2)cc1
  0.46, -0.65
> CCC(=O)Nc1nn(CC)c2nc3ccccc3cc12
  -0.62, 0.45
> N#Cc1c(-c2c(F)cccc2Cl)noc1/C=C/Nc1ccc(Cl)cc1
  0.24, /
> FC(F)(F)c1cccc(-n2c(-c3ccncc3)n[nH]c2=S)c1
  -1.1, -0.35
> CCCCCOc1ccc(NC(=O)C2OC3OC4(CCCCC4)OC3C3OC4(CCCCC4)OC23)cc1 (stereo not given)
  -0.95, /
> O=C(N(c1ccccn1)C1CCCCC1)C12CC3CC(CC(C3)C1)C2
  0.13, -0.85
> O=C(NCCc1ccccc1)c1cccc(N2CCCC2=O)c1
  -0.71, -0.55
> NC1=NC(=O)C(c2ccccc2Cl)S1 (stereo not given)
  0.17, -0.2
> CCC(=O)c1ccc2c(c1)OCCO2
  i, -0.3
> O=c1[nH]ccc2nc(NCc3ccccc3)ncc12
  0.35, 0.35
> CCc1nn2c(=O)cc(COc3ccc(C=C(C#N)C#N)cc3OC)nc2s1
  -0.44, -0.15
> COc1cccc2c1OCC(C(=O)NCc1ccc(Cl)cc1Cl)=C2
  -0.17, /
> COc1cc(C(=O)N2c3ccccc3N3C(c4c(C)c(C)cc(C)c4C)=NON23)cc(OC)c1OC
  -0.78, /
> CC(OC(=O)c1ccc(Cl)c(S(N)(=O)=O)c1)c1nnc(-c2cccs2)o1 (stereo not given)
  /, 0.95
> CC1CC(C)CN(C(=O)COc2ncnc3ccccc23)C1 (stereo not given)
  0.83, 0.95
> C=CCn1cnc2c1c(=O)n(C)c(=O)n2C
  -0.42, -2.5
> Oc1ccc(Br)cc1C=Nc1nonc1-c1ccccc1
  -0.59, 2.1
> COc1ccc(N(C(C)=O)C2SC(=O)N(c3ccccc3)C2=O)cc1 (stereo not given)
  -0.42, -0.1
> COc1ccc(C(=O)c2oc3ccc4ccccc4c3c2C)cc1
  0.24, /
> CCN(C(=O)COc1ccc(C#N)cc1OC)C1CCCCC1
  /, 0.05
> Cc1onc(-c2c(Cl)cccc2Cl)c1NC(=O)SCc1c(Cl)cccc1Cl
  0.025, /
> CCOC(=O)N1CCC(NC(=O)C2CCCN(Cc3nc(-c4ccc(CC)cc4)oc3C)C2)CC1 (stereo not given)
  0.025, 0.1
> Cc1ccc2c(c1)N(CC(=O)NCc1ccccc1Cl)C=NS2(=O)=O
  0.08, 0.15
> Cc1nn(Cc2ccccc2Cl)c(C)c1C(=O)n1nnc2ccccc21
  /, -0.95
> Cc1cc(C)cc(N(CC(=O)NCc2ccco2)S(C)(=O)=O)c1
  /, -0.6
> CN(C)c1ccc(NC(=O)/C=C/C(=O)O)cc1
  /, 0.7
> CC(=O)C1=C(C)NC(SCc2cccc([N+](=O)[O-])c2)=C(C#N)C1c1ccc(Cl)cc1 (stereo not given)
  -0.22, /
> CC1CN(Cc2ccccc2)CCN1C(=O)c1csc(-c2cccs2)n1 (stereo not given)
  2.7, 0.55
> O=c1[nH]c2sc3c(c2c(=O)n1Cc1ccco1)CCCC3
  4, -0.4
> O=C(CSc1nnc(NC(=O)c2ccccc2)s1)Nc1ccccc1
  2.4, -0.8
> COc1cccc(C2N(c3ccccc3)CCN2c2ccccc2)c1OC
  /, 0.05
> COc1ccc(CNS(=O)(=O)c2ccc(F)c(C(=O)Nc3c(F)cc(F)cc3Br)c2)cc1
  -0.68, /
> COc1cc(N=Cc2c(O)[nH]c(=O)[nH]c2=O)cc(OC)c1OC
  -1.3, -0.15
> COC(=O)c1cc2c(cc1NC(=O)c1c(C)nn(-c3ccccc3)c1-n1cccc1)OCO2
  1.6, 1.3
> O=C(Nc1ccc(Cl)c(Cl)c1)Nc1ncc2c(n1)CC(c1ccco1)CC2=O (stereo not given)
  0.15, -0.35
> CCOC(=O)c1ccc(NC(=S)N2CCC(N(C)C(C)CC)CC2)cc1 (stereo not given)
  -0.89, 0.05
> Cc1ccc(S(=O)(=O)N/N=C/c2ccc3c(c2)n(C)c(=O)n3C)cc1
  -0.57, 1.7
> CC(CCc1ccccc1)N1C(=O)c2ccccc2C1C(=O)NCCc1ccccc1 (stereo not given)
  -0.66, -0.95
> CCc1nn2cc(C(C)(C)C)nc2s1
  0.43, /
> COc1cc(C(=O)Oc2ccc3c(=O)c(-c4ccccc4Cl)coc3c2)cc(OC)c1OC
  -0.91, /
> CCCNC(=O)C1CCCN(c2nn3cc(-c4ccc(C)cc4)nc3s2)C1 (stereo not given)
  1.3, 0.35
> Cc1ccc(-c2nc3sc4c(n3n2)CC(C)(C)CC4=O)cc1
  1.4, 0.4
> CCN(CC(=O)Nc1cccc(OC)c1)C(=O)Cn1nnc2ccccc21
  /, 0.4
> Cc1ncc(CO)c(CO)c1O
  46&0.005, -0.2
> Nc1ccccc1N1CCCC1
  /, -0.2
> Cn1cnc(S(=O)(=O)NCc2ccccc2)c1
  -0.11, 0.2
> COC(=O)c1cccc(Cl)n1
  -0.28, -0.15
> O=C(CSCC(=O)Nc1cccc2ccccc12)Nc1ccc(Br)cc1
  -0.12, 2.1
> Cn1nc(-c2nc3c4c5c(sc4[nH]c(=O)n3n2)CCC5)c2ccccc2c1=O
  /, -0.85
> CC(=O)N1c2ccccc2C(C)(C)C2CCC(C)CC21 (stereo not given)
  -0.045, -0.4
> CC(=O)c1cccc(NC(=O)c2cc3nc(-c4ccc5c(c4)OCO5)cc(C(F)(F)F)n3n2)c1
  0.56, /
> CCC1=Nc2cc(C(=O)NCc3cccnc3)ccc2Sc2ccc(C)cc21
  -0.22, 1
> O=c1c2ccccc2nc(SCc2ccccc2)n1OCc1ccccc1
  0.01, -0.3
> CCOC(=O)c1[nH]c(C)c(C(=O)NC2CCCCC2)c1C
  -0.19, 0.35
> CCOC(=O)c1cc(C#N)c(Sc2ccccc2Cl)nc1-c1ccccc1
  -0.04, /
> CCOc1nc(NCCO)nc(NCCC2=CCCCC2)n1
  /, -0.15

Bioassay records deposited in PubChem by ICCB-Longwood Screening Facility, Harvard Medical School.

An excerpt; the hit share may differ from the screen's.
